VDR inhibitor – Inhibitors of the vitamin D receptor (VDR): qHTS; 400,000 compounds, 0.93% hits; VDR-SRC2-3 peptide fluorescence polarization, 2 h; Vitamin D3 receptor (Homo sapiens), P11473; AID 504847, 2011; Potency, µM, without a hit: max response, negative = inhibition, actives largely listed as inhibitors; active = well fitted inhibition curve with a large enough effect; inconclusive = small, poorly fitted or top-dose-only effect, or another doubt; inactive = no such curve, though single readings can be large or run the other way; note: series mostly up to about 120 µM
Target sequence (P11473 whole entry, looked up): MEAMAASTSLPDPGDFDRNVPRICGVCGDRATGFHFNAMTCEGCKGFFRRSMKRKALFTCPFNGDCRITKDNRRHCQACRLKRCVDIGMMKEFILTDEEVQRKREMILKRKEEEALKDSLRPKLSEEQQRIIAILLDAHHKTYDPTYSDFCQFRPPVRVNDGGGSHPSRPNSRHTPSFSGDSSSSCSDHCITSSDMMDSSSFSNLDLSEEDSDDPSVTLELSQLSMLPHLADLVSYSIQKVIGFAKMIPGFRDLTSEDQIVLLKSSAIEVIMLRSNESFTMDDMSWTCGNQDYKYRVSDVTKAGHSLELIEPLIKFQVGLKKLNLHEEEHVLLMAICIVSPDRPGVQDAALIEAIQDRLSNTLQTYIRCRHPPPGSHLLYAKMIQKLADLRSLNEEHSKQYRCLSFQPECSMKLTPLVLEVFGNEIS
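Compounds are added to VDR with labelled SRC2-3 coactivator peptide and held 2 h at room temperature. Inhibition of the VDR–peptide interaction is then read as a change in fluorescence polarization.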
Numbers without * were called inactive; ? = inconclusive. % is set by controls: 0 for no effect and ±100 for the full control effect; potency is the fitted concentration of half-maximal effect.

SMILES	VDR inhibitor
CC(C)(C)/C(O)=C/c1nc2ccccc2oc1=O	-0.9%
COc1ccc(NC(=S)N2CCC(C(=O)c3ccc(OC)cc3)CC2)cc1	-25.7%
O=C(/C=C/Nc1ccc(S(=O)(=O)Nc2cnc3ccccc3n2)cc1)c1cccnc1	-14.1%
Cc1ccc(CNC(=O)c2ccc(F)c(S(=O)(=O)N3CCOCC3)c2)cc1	-11.4%
COc1ccc(NC(=O)Cn2c(=O)n(Cc3ccccc3OC)c(=O)c3cccnc32)cc1Cl	3.9%
C[Si](C)(C)n1ccnc1	-21.7%
COc1cc(OC)c(OC)cc1CN1CCc2nc(Nc3ccc4c(c3)OCCO4)ncc2C1	2.6%
O=C(CSc1nc(O)c(Cc2ccccc2)c(=O)n1-c1ccccc1)N1CCOCC1	-3.0%
O=C(COc1ccccc1)NCC(=O)N/N=C/c1cccs1	-11.0%
CC(=O)c1cccc(NC(=O)C(C)OC(=O)CCCN=C2NS(=O)(=O)c3ccccc32)c1 (stereo unspecified)	-10.2%
O=C(CNc1ccccc1OC(F)F)N1CCc2ccccc21	8.2%
COc1ccccc1C(=O)N/C(=C\c1cn(S(=O)(=O)N(C)C)c2ccccc12)C(=O)NCCCn1ccnc1	23.8%
Cc1ccc(-n2c(N)cc(=O)nc2SCC(=O)N2CCN(c3ccccc3)CC2)cc1C	-17.1%
CC(=O)Oc1ccc(Oc2ccc(-c3noc(C)n3)cc2)cc1	-6.7%
CCC(C)Sc1cc(-c2nc3ccccn3c2NC2CCCCC2)ccc1OC (stereo unspecified)	-5.4%
Cc1c(/C(Cc2ccccc2)=N/O)c2ccccc2n1C	-25.7%
Cc1ccc(/C(N)=N/OC(=O)c2ccc(F)cc2)cc1	-5.9%
O=C1CCC(=O)N(O)CCCCCNC(=O)CCC(=O)N(O)CCCCCNC(=O)CCC(=O)N(O)CCCCCN1	-12.8%
Cc1c(/C=N/n2cnnc2)c2ccccc2n1CCOc1ccc(Cl)cc1	-4.6%
CCOC(=O)c1sc(=NC(=O)CCSc2ccccc2)n(C)c1C	7.8%
O=[N+]([O-])c1ccc(CN2CCN(c3ccccc3)CC2)o1	-4.2%
COc1ccc(N2CCN(CC(=O)Nc3ccc(-n4cnnn4)cc3)CC2)cc1	1.2%
CCOc1ccc(NC(=O)N(C2CCCCC2)C(C)c2ccncc2)cc1 (stereo unspecified)	17.2%
CC(C)C[C@@H](CO)N1CCN(CCc2ccccc2)CCC1=O	7.9%
COc1cc(C=C(c2nc3ccccc3s2)c2nc3ccccc3s2)ccc1O	-3.5%
SMILES	VDR inhibitor
CCNC(=O)N1CCOCC1	-1.2%
COc1ccc(C(=O)NCCn2cc(SCc3ccc(C(F)(F)F)cc3)c3ccccc32)cc1OC	-5.4%
CC(=O)N1CCC2(CC1)CN(c1cccc(-c3ccccc3)c1)C2	17.5%
COCc1cc(Sc2ccc(Cl)cc2)nc(C)n1	-2.3%
O=C(NCCCc1nc2ccccc2n1Cc1ccc(Cl)cc1Cl)c1ccco1	-6.4%
CC1CCCCN1C(=O)COC(=O)c1n[nH]c2ccccc12 (stereo unspecified)	4.4%
COc1ccc2nc(-n3c(C)ccc3C)sc2c1	20.6%
Cc1ccc(C(=O)N(C)CC(=O)Nc2cccc(F)c2)cc1S(=O)(=O)N1CCCCC1	10.3%
CCOCCCNC(=O)c1c[nH]c2c(CC)cccc2c1=O	-6.9%
CN(c1ccccc1)S(=O)(=O)c1cccc(C(=O)NCC(=O)Nc2ccc(F)c(F)c2F)c1	-3.4%
O=C(Nc1ccccc1F)C1CCN(C(=O)NC2CCCCC2)CC1	8.2%
CCCNC(=O)c1onc(CSc2ccc(F)cc2)c1C(=O)NCCC	-9.1%
COc1ccc(/C(O)=C2\C(=O)C(=O)N(c3cc(C)on3)C2c2cccc(OC)c2OC)cc1C (stereo unspecified)	-4.9%
CCOP1(=O)C=C(Sc2ccc([N+](=O)[O-])cc2[N+](=O)[O-])C(C)(C)O1 (stereo unspecified)	-15.0%
Cc1ccc(CNC(=O)C2CCCN(c3nc4ccccc4o3)C2)cc1 (stereo unspecified)	-2.4%
O=C(CCCOc1ccc(Cl)cc1Cl)Nc1cccnc1	11.3%
CC(C)N(C)Cc1cn(C)nc1-c1ccc(Oc2ccccc2)cc1	-26.8%
COc1ccccc1NC(=O)C(=O)N/N=C(\C)CC(=O)Nc1ccccn1	-1.3%
Cc1ccc(-c2nc(S(=O)(=O)c3ccc(C)cc3)c(N3CCOCC3)o2)cc1	?
COc1cccc(CC(=O)NNC(=O)c2ccc3c(c2)OCO3)c1	-7.1%
O=C(Nc1cccc(-n2cnnn2)c1)c1ccoc1COc1ccc(Cl)cc1	3.8%
Cc1ccc2occ(CC(=O)N(Cc3ccc(Cl)cc3)C3CCS(=O)(=O)C3)c2c1 (stereo unspecified)	2.8%
Cn1c(=O)[nH]c(=O)c2c1nc(Sc1ccccc1)n2CCc1ccccc1	-12.5%
CNCCOc1ccccc1-c1ccccc1	-2.9%
C=C(C1=CCN(S(=O)(=O)C(C)(C)C)[C@@H]1CCO)c1ccccc1	2.3%
SMILES	VDR inhibitor
COc1ccc(CCC(=O)NCc2ccccc2OC)cc1	-87.7%
Cc1ccccc1-c1nc(-c2ccc(NC(=O)c3ccc4c(c3)OCO4)cc2)no1	5.2%
CCN(CC)S(=O)(=O)c1ccc(C(=O)Nc2nnc(C(C)C)s2)cc1	-11.5%
COc1ccc(C(=O)Oc2c(OC)cc(C(=S)N3CCOCC3)cc2OC)cc1OC	?
Cc1ccc(OCC(=O)N2CCN(C(=O)CCC3CCCC3)CC2)cc1	-4.6%
CC(=O)NS(=O)(=O)c1ccc(N=c2ssc3c2-c2cc(C)ccc2NC3(C)C)cc1	-13.0%
O=C(O)Cn1cnc2scc(-c3cccs3)c2c1=O	-7.5%
CN1CCC[C@@H]1CCNC(=O)c1c(-c2ccc3c(c2)OCO3)noc1-c1ccsc1	1.8%
Cc1c(Br)c(=O)oc2c(Br)c(O)c(O)cc12	-9.4%
N#Cc1ccccc1NCc1ccccc1	-14.6%
CCCCc1c(C)nc(Nc2ccc(OC)cc2)[nH]c1=O	-15.6%
COc1ccc(-c2nc(N3CCC(C)CC3)[nH]c(=O)c2C#N)cc1	7.4%
CC(=O)c1ccc(N2CCN(c3nc4ccccc4c4nc(-c5cccc(C)c5)nn34)CC2)cc1	12.9%
CCOC(=O)c1cnc(-n2nc(C)cc2C)nc1Oc1ccc(C(=O)OC)cc1	22.4%
COCCNC(=O)C(C)Oc1ccccc1 (stereo unspecified)	-6.9%
O=C(NCCO)C1COc2ccccc2O1 (stereo unspecified)	2.0%
O=C(CCCc1ccccc1)Nc1ccnn1C1CCN(Cc2ccccc2F)CC1	-22.5%
CC1(c2ccc(OC(F)F)cc2)NC(=O)N(CC(=O)Nc2ccc(Cl)cc2F)C1=O (stereo unspecified)	-0.2%
CC(C)CN1C(=O)c2ccc(C(=O)Nc3ccccc3C(=O)O)cc2C1=O	?
COc1ccc(COCC(O)CN2CCN(S(=O)(=O)c3ccc(C(C)C)cc3)CC2)cc1 (stereo unspecified)	3.5%
Cc1c(C(=O)NCc2ccccc2)c(-c2ccccc2)nn1-c1ccccc1	-1.3%
O=C(Cn1c(=O)[nH]c2ccsc2c1=O)NC1CCCCC1	7.4%
COc1cccc(CNC(=O)CN2C(=O)N(c3cccc(Cl)c3)S(=O)(=O)c3ccccc32)c1OC	17.8%
Cc1ccc(C(=O)c2cn(Cc3ccccc3)c3cc4c(cc3c2=O)OCCO4)cc1	-5.0%
COc1ccc(CN=C2NC(=O)CC(C(=O)Nc3ccc(F)cc3)S2)cc1 (stereo unspecified)	20.8%
SMILES	VDR inhibitor
Cc1cc(C(F)(F)F)n2ncc(-c3cccc(Br)c3)c2n1	-3.2%
Cc1ccc2nc(C)c(C(=O)NN=C3CCCCCC3)n2c1	?
CN(CC(=O)Nc1ccc(F)cc1)C(=O)c1cc2c(s1)CCCCC2	-10.8%
COc1cc(/C=N\NC(=O)c2ccc(=O)[nH]n2)cc(OC)c1OC	11.4%
CN1C(=O)CC(N2CCN(c3ccc(Cl)cc3)CC2)C1=O (stereo unspecified)	-4.7%
CCCN1CCN(C(=O)c2cccc3c2C(=O)N(CCOC)C3)CC1	7.0%
CCCCN(C(=O)c1cc(-c2ccncc2)nc2ccccc12)c1c(N)n(CC(C)C)c(=O)[nH]c1=O	5.2%
COc1cc(CCCN2C(=S)NC[C@H]2Cc2ccc(O)cc2)cc(OC)c1OC	2.9%
O=C(N/N=C/c1ccc2c(c1)OCO2)c1sc2cc(Cl)ccc2c1Cl	-1.1%
Cc1ccc(NC(=O)COC(=O)c2nn(C)cc2Cl)cc1	-1.6%
COc1ccc(OC)c(NC(=O)CN2CCC(C(=O)c3ccc(C)cc3)CC2)c1	-16.0%
Cc1ccc(NC(=O)Cn2c(=O)n(CCCCC(=O)NCc3ccco3)c(=O)c3ccccc32)cc1	24.9%
CN(C(=O)CSc1ccncc1)C1CCCN(Cc2ccccc2F)C1 (stereo unspecified)	16.5%
COc1cccc(C(c2c(O)nc(SC)n(C)c2=O)c2c(O)nc(SC)n(C)c2=O)c1	9.6%
COc1ccc(OC)c(-c2cc(C(=O)Nc3cc(C)n(Cc4ccc(Cl)cc4)n3)no2)c1	-22.0%
COc1ccc(OC)c(/C=N/N(CCC#N)C2=NS(=O)(=O)c3ccccc32)c1	-13.3%
COc1ccc(CCNC(=O)COC(=O)CSc2ccc(C(N)=O)cc2[N+](=O)[O-])cc1OC	4.2%
COc1ccc(-c2csc(NC(=O)CN3C(=O)C4CC=CCC4C3=O)n2)cc1 (stereo unspecified)	2.8%
COC(=O)Cc1cc(=O)oc2cc(O)ccc12	-3.9%
COc1cccc(OCC(=O)NCCS(=O)(=O)N2CCN(c3ccccc3F)CC2)c1	5.9%
O=C(CSc1nc2ccccc2s1)NCc1cc([N+](=O)[O-])ccc1O	?
Cc1nn(C)c(C)c1NC(=O)Nc1cccc(C(F)(F)F)c1	0.1%
C/C(=N\NC(=O)c1cccc([N+](=O)[O-])c1)c1cccc(NC(=O)C2CC2)c1	-10.1%
O=C(CNC(=O)c1ccc(F)cc1)OCc1cc(=O)n2nc(C3CC3)sc2n1	-6.3%
COc1cccc(NC(=O)Nc2nnc(N3C(C)CCCC3C)s2)c1 (stereo unspecified)	1.3%
SMILES	VDR inhibitor
Cc1ccc2c(c1)NC(=O)C(CC(=O)NCc1cccnc1)O2 (stereo unspecified)	-22.3%
O=[N+]([O-])c1cc(C(F)(F)F)ccc1Sc1ccc2ccccc2n1	-25.5%
CC(C)(C)OC(=O)C[C@@H]1C/C=C\C[C@H](CC(=O)N[C@H](CO)Cc2ccccc2)C(=O)N[C@H](C(C)(C)C)COC1=O	11.6%
CCCS(=O)(=O)c1nc(C)cc(C)c1S(C)(=O)=O	12.7%
O=C(CSc1ncc(S(=O)(=O)c2ccc(Br)cc2)c(=O)[nH]1)Nc1ccc2c(c1)OCCO2	-4.7%
CCn1c2ccc(C)cc2c2nc3cc(C(=O)O)ccc3nc21	-7.0%
COc1c2ccoc2nc2c(OC)cccc12	8.4%
CCOC(=O)C1=NNC(C(=O)c2ccccc2)C1c1ccc(C)cc1 (stereo unspecified)	-18.0%
Cc1ccc([N+](=O)[O-])c(OCCN2CCNCC2)c1	28.9%
Cc1cc(C)c2nc(NC(=O)C3CCCO3)sc2c1 (stereo unspecified)	8.5%
Cc1cc(C)cc(-n2c(C)nc3cc(C(=O)NCc4ccc(F)cc4)ccc32)c1	7.0%
Cn1c(SCc2nc(-c3ccccc3)no2)nnc1-c1ccco1	-3.0%
Cc1ccccc1Nc1nc(-c2ccccc2)c(C(=O)Nc2cccnc2)s1	-12.0%
CCn1cc(C(=O)N2CCCC2)c(=O)c2cc(S(=O)(=O)N3CCC(C)CC3)ccc21	-4.8%
Cc1nn(C)cc1C(=O)NNC(=S)Nc1ccc(Cl)cc1	-3.6%
COc1ccc(NC(=O)Cn2c(C)csc2=O)c(OC)c1	6.2%
COc1ccc(F)cc1CN1CCN(C(=O)c2ccc(S(=O)(=O)N3CCCCCC3)cc2)CC1	-14.8%
Cc1nc(-c2cccc(NC(=O)Nc3ccccc3C(F)(F)F)c2)no1	4.2%
CCn1c(SCC(=O)Nc2ccc(NC(=O)c3ccco3)cc2)nnc1-c1cccs1	2.6%
COc1cccc(CN2CCN(C(=O)c3ccc(-c4ccccc4)cc3)CC2)c1OC	1.8%
CC(C)c1c(O)ccc2c1CCC1C(C)(C)CCC[C@@]21C (stereo partly specified)	10.0%
O=C(c1ccc(NS(=O)(=O)c2cccc3cccnc23)cc1)N1CCOCC1	-8.8%
O=C(NC(=S)Nc1nc2ccccc2s1)c1cccs1	-11.6%
COc1ccc(CNC(=O)CN2C(=O)COc3ccc(S(=O)(=O)N4CCCCCC4)cc32)cc1	1.4%
OC(CN1CCN(Cc2ccccc2)CC1)c1ccc(F)cc1 (stereo unspecified)	12.2%
O=C(NCc1ccco1)C1CCN(c2nc3ccccc3n2Cc2ccccc2F)CC1	-17.6%

Not all compounds are listed; rates above refer to the full screens.
